High-throughput results as filed in PubChem.
YB-1 expr inh = YB-1 expression inhibition. U2OS, qRT-PCR YB-1 vs CDIP delta delta Cp, 16 h; stronger effect = higher value; zero = DMSO, each unit about twofold. actives 0.37% (n = 30,000). delta delta Cp (YB-1 minus CDIP) (concentration not given with the values);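 active = delta delta Cp rounded down to an integer at or above 3, about 3 SD of DMSO wells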;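 note: higher means less YB-1 transcript or more CDIP transcript relative to DMSO; stock transfer was 100 nL into about 100 µL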
MITF inhib = blocks MITF activity. TRPM1 promoter luciferase, luminescence, 24 h. inhibition, % (concentration not given with the values). actives 0.28% (n = 37,000);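 active = most replicates at 85% or more, or half of them and the mean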;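 note: human melanocyte line stably carrying TRPM1 promoter luciferase reporter; 0% = vehicle wells and 100% = a positive control; the first replicate is given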
PD-1 reverse act = reversal of PD-1 mediated T-cell inhibition; primary human CD4 T cells, PD-L1 beads, CellTiter-Glo 96 h; activation, % (test concentration not listed); 29,000 tested, under 10 active; AID 2316;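 active = replicate mean of 50% or more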;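 note: 0% = median vehicle wells and 100% = positive control; 100 nL library stock added to about 50 µL; numbers are from one replicate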
Hedgehog inh = Sonic Hedgehog pathway inhibition. actives 2.1% (n = 22,000). AID 2313. Shh-LIGHT2 Gli-luciferase reporter, 30 h. inhibition, % (no concentration beside the values);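 active = replicate mean of 65% or more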;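 note: pathway switched on by Shh-conditioned medium diluted 1 in 25 in low serum; 100 nL library stock added to about 40 µL; 0% = median of neutral wells and 100% = positive control level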
Starred values were filed as active, the others as inactive; x = not tested or not shown.

Structure,YB-1 expr inh,MITF inhib,PD-1 reverse act,Hedgehog inh
C[C@H]1CN([C@@H](C)CO)C(=O)Cc2cc(NC(=O)c3ccncc3)ccc2O[C@H]1CN(C)Cc1ccc(C(F)(F)F)cc1,0.03,-14,-5.0,-21
NC(=O)C1(N2CCCCC2)CCN(C(=S)NCc2ccco2)CC1,x,7,1.8,x
C[C@@H]1CN([C@H](C)CO)C(=O)c2cccc(NS(=O)(=O)c3ccccc3)c2O[C@H]1CN(C)CC1CCCCC1,-0.47,-17,x,16
COc1ccc(NC(=O)N(C)C[C@H]2Oc3ccc(NC(=O)c4ccncc4)cc3CC(=O)N([C@H](C)CO)C[C@H]2C)cc1,0.47,-1,-3.4,-14
Cc1ccccc1-c1cc(C(=O)NCCCN2CCOCC2)c2cc(Cl)ccc2n1,x,-4,-1.8,x
S=c1[nH]c(=S)c2cnc(N3CCc4ccccc43)nc2[nH]1,-0.32,5,0.6,-11
C[C@H]1CN([C@@H](C)CO)C(=O)Cc2cc(NC(=O)Cn3cnnn3)ccc2O[C@@H]1CN(C)C(=O)Nc1ccccc1,0.47,-20,1.2,51
CCOC(=O)c1ccc(NC(=O)CSc2nc3ccc(C)cc3[nH]2)cc1,x,-25,-1.7,x

Later entries.
Structure,YB-1 expr inh,MITF inhib,PD-1 reverse act,Hedgehog inh
C[C@@H]1CN([C@H](C)CO)C(=O)Cc2cc(NS(=O)(=O)c3ccc(Cl)cc3)ccc2O[C@@H]1CN(C)Cc1ccccc1,-0.18,-11,-3.1,1
COc1cc(OC)c(NC(=O)CSc2nnc(C)s2)cc1Cl,x,-4,-1.1,x
C[C@H]1CN([C@@H](C)CO)C(=O)c2cc(NC(=O)Nc3ccc4c(c3)OCO4)ccc2O[C@@H]1CN(C)S(=O)(=O)c1ccccc1,0.19,0,1.0,x
C[C@H]1CN([C@@H](C)CO)C(=O)Cc2cc(NS(=O)(=O)c3ccc(F)cc3)ccc2O[C@H]1CN(C)S(=O)(=O)c1ccc(F)cc1,0.18,1,x,-14
COc1ccc(S(=O)(=O)Nc2ccc3c(c2)C(=O)N([C@H](C)CO)C[C@@H](C)[C@H](CN(C)C(=O)NC(C)C)O3)cc1,-0.036,-3,2.2,x
CNC[C@H]1Oc2ccc(NC(=O)Cc3cn(C)c4ccccc34)cc2C(=O)N([C@H](C)CO)C[C@H]1C,-0.24,7,0.5,12
COC(=O)c1cc(OC)c(OC)cc1NC(=O)c1c(-c2ccccc2)noc1C,x,-7,-0.2,x
COc1ccc(S(=O)(=O)N(C)C[C@@H]2Oc3c(NC(=O)Nc4ccccc4)cccc3C(=O)N([C@H](C)CO)C[C@@H]2C)cc1,-0.48,0,0.4,4

Next results
Structure,YB-1 expr inh,MITF inhib,PD-1 reverse act,Hedgehog inh
COc1ccc(S(=O)(=O)Nc2ccc3c(c2)CC(=O)N([C@H](C)CO)C[C@H](C)[C@H](CN(C)C(=O)Nc2ccccc2)O3)cc1,0.18,-17,x,x
C[C@@H]1CN([C@@H](C)CO)C(=O)c2cccc(NS(C)(=O)=O)c2O[C@@H]1CN(C)S(=O)(=O)c1cn(C)cn1,0.49,2,1.8,2
C[C@H]1CN([C@@H](C)CO)C(=O)c2cc(NS(=O)(=O)c3cccs3)ccc2O[C@H]1CN(C)C(=O)Nc1ccccc1,0.16,-5,-0.6,0
C[C@H]1CN([C@@H](C)CO)C(=O)c2cccc(NS(=O)(=O)c3ccc(F)cc3)c2O[C@H]1CN(C)C(=O)Nc1cccc2ccccc12,0.059,32,-5.8,16
COc1ccc(NC(=O)CCSc2nnc3scc(-c4ccc(C)cc4)n23)cc1,x,-6,-0.8,x
C[C@@H]1CN([C@H](C)CO)C(=O)c2cc(NC(=O)Cc3ccccc3)ccc2O[C@H]1CN(C)S(=O)(=O)c1ccc(F)cc1,0.015,-7,x,-3
C[C@H]1CN([C@@H](C)CO)C(=O)Cc2cc(NC(=O)CCC(F)(F)F)ccc2O[C@H]1CN(C)S(=O)(=O)c1ccccc1,-0.12,7,0.1,31
C[C@H](CO)N1C[C@H](C)[C@@H](CN(C)C(=O)Nc2ccc(C(F)(F)F)cc2)Oc2ccc(NS(=O)(=O)c3ccccc3)cc2C1=O,-0.01,6,-0.8,-12

Carrying on.
Structure,YB-1 expr inh,MITF inhib,PD-1 reverse act,Hedgehog inh
CCOc1ccc2nc(Nc3nc(C)c(Cc4ccc(C)cc4)c(=O)[nH]3)nc(C)c2c1,x,7,-0.9,x
C[C@@H]1CN([C@@H](C)CO)C(=O)c2cc(NC(=O)Cc3ccccc3)ccc2O[C@H]1CN(C)CC1CCCCC1,-0.12,-17,-0.8,x
COc1ccc(NC(=O)Nc2ccc3c(c2)C(=O)N([C@H](C)CO)C[C@H](C)[C@@H](CN(C)C(=O)C2CCCCC2)OCCCC[C@@H](C)O3)cc1,0.35,-13,-1.1,-20
CCS(=O)(=O)c1nc2ccccc2n1CCOc1ccc(OC)cc1,x,14,-2.0,x
CC(C)(C)C(=O)Nc1cccc(-c2cc(-c3c(Cl)cccc3Cl)no2)c1,-0.15,3,-0.7,29
Cc1cc(SCC(=O)Nc2sc3c(c2C#N)CCCC3)nc2ccccc12,x,-49,1.7,x
Cc1ccc(S(=O)(=O)N(C)C[C@@H]2Oc3ccc(NC(=O)Cn4cnnn4)cc3CC(=O)N([C@@H](C)CO)C[C@@H]2C)cc1,-0.48,0,0.4,-13
O=C(CC1(O)C(=O)N(Cc2ccccc2)c2ccc(Br)cc21)c1ccco1 (configuration not stated),x,8,-9.3,x

Next part
Structure,YB-1 expr inh,MITF inhib,PD-1 reverse act,Hedgehog inh
C[C@@H]1CN([C@@H](C)CO)C(=O)c2cc(NC(=O)Cc3cn(C)c4ccccc34)ccc2O[C@H]1CN(C)S(=O)(=O)c1cccs1,-0.097,-2,-3.2,x
COc1ccc(NC(=O)N(C)C[C@@H]2Oc3c(NS(C)(=O)=O)cccc3C(=O)N([C@H](C)CO)C[C@H]2C)cc1,-0.13,6,1.9,-23
COc1ccc(NC(=O)N(C)C[C@@H]2Oc3ccc(NS(=O)(=O)c4ccccc4)cc3C(=O)N([C@H](C)CO)C[C@@H]2C)cc1,-0.26,-8,-1.0,-4
C[C@H](CO)N1C[C@H](C)[C@H](CN(C)Cc2ccc(Cl)c(Cl)c2)Oc2ccc(NC(=O)CCCCCC(=O)Nc3ccccc3N)cc2C1=O,0.15,35,-0.9,x
C[C@H](CO)N1C[C@H](C)[C@@H](CN(C)CC2CC2)Oc2c(NC(=O)c3cnccn3)cccc2C1=O,0.022,2,x,-101
COc1ccc(NC(=O)N(C)C[C@@H]2OCCCC[C@@H](C)Oc3ccc(NC(=O)Nc4ccc(F)cc4)cc3C(=O)N([C@H](C)CO)C[C@@H]2C)cc1,-0.54,11,x,-25
CC(C)NC(=O)N(C)C[C@H]1Oc2ccc(NC(=O)Nc3cccc4ccccc34)cc2CC(=O)N([C@@H](C)CO)C[C@H]1C,-0.044,4,-1.8,-2
COc1ccccc1Nc1nc(N)nc(CN2CCCCCC2)n1,x,-2,-0.1,x

(more compounds)
Structure,YB-1 expr inh,MITF inhib,PD-1 reverse act,Hedgehog inh
C[C@@H]1CCCCO[C@@H](CN(C)C(=O)Nc2ccc3c(c2)OCO3)[C@@H](C)CN([C@H](C)CO)C(=O)c2cc(NS(=O)(=O)c3cccs3)ccc2O1,1.9e-06,-5,-0.3,x
C[C@H](CO)N1C[C@H](C)[C@H](CN(C)Cc2ccc(Oc3ccccc3)cc2)Oc2ccc(NS(C)(=O)=O)cc2CC1=O,-0.26,-16,-2.8,27
C[C@@H]1CN([C@H](C)CO)C(=O)c2cc(NC(=O)C3CCCCC3)ccc2O[C@@H]1CN(C)C(=O)Nc1cccc2ccccc12,-0.00041,6,-2.2,22
C[C@H]1CN([C@@H](C)CO)C(=O)c2cc(NS(=O)(=O)c3ccc(Cl)cc3)ccc2O[C@@H]1CN(C)C(=O)Nc1ccc(C(F)(F)F)cc1,0.23,19,-1.5,37
C[C@H]1CN([C@@H](C)CO)C(=O)c2cccc(NC(=O)NC3CCCCC3)c2O[C@H]1CN(C)C,-0.15,-9,4.2,-20
CC(=O)c1ccc(NC(=O)COc2ccccc2C(=O)Nc2cc(C(F)(F)F)ccc2Cl)cc1,x,43,-1.0,x
C[C@@H]1CN([C@H](C)CO)C(=O)Cc2cc(NS(C)(=O)=O)ccc2O[C@@H]1CN(C)Cc1ccc2c(c1)OCO2,0.06,-3,x,9
COc1ccc(NC(=O)Nc2cccc3c2O[C@H](CN(C)C(=O)Nc2cccc4ccccc24)[C@@H](C)CN([C@@H](C)CO)C3=O)cc1,0.26,-11,0.1,-5

Later entries.
Structure,YB-1 expr inh,MITF inhib,PD-1 reverse act,Hedgehog inh
CCc1nc(SCC(=O)Nc2ccccc2C(=O)OC)n[nH]1,x,-18,1.4,x
Cc1ccc(S(=O)(=O)N(C)C[C@@H]2Oc3ccc(NC(=O)CCCCCC(=O)Nc4ccccc4N)cc3C(=O)N([C@@H](C)CO)C[C@H]2C)cc1,0.47,1,-0.7,x
COc1ccc(S(=O)(=O)Nc2cccc3c2O[C@H](CN(C)S(=O)(=O)c2ccccc2)[C@@H](C)CN([C@H](C)CO)C3=O)cc1,0.051,-8,x,24
C[C@H](CO)N1C[C@H](C)[C@H](CN(C)S(=O)(=O)c2cccs2)Oc2c(NC(=O)C3CCCCC3)cccc2C1=O,-0.48,13,1.3,-5
C[C@H]1CN([C@@H](C)CO)C(=O)c2cc(NS(=O)(=O)c3ccc(Cl)cc3)ccc2O[C@@H]1CN(C)S(=O)(=O)c1ccccc1,-0.2,7,-1.3,x
COc1cc(NC(=O)CC2NC3CCCCC3NC2=O)cc(OC)c1 (configuration not stated),x,-7,1.3,x
C[C@H](CO)N1C[C@H](C)[C@H](CN(C)C(=O)NC2CCCCC2)Oc2c(NS(=O)(=O)c3ccc(F)cc3)cccc2C1=O,0.0024,-1,-0.4,-42
COc1ccc(NC(=O)N(C)C[C@H]2Oc3ccc(NS(=O)(=O)c4ccc(C)cc4)cc3CC(=O)N([C@H](C)CO)C[C@H]2C)cc1,0.018,-7,1.3,-19

Continuation.
Structure,YB-1 expr inh,MITF inhib,PD-1 reverse act,Hedgehog inh
COc1cccc2sc(NC(=O)c3ccc(S(=O)(=O)N(C)C)cc3)nc12,0.37,3,2.7,31
CC(C)NC(=O)N(C)C[C@@H]1Oc2ccc(NS(=O)(=O)c3ccccc3)cc2CC(=O)N([C@@H](C)CO)C[C@@H]1C,-0.26,-1,1.6,0
C[C@H](CO)N1C[C@H](C)[C@H](CN(C)Cc2ccc(C(=O)Nc3ccccc3N)cc2)Oc2ccc(NC(=O)C3CCCCC3)cc2CC1=O,-0.28,15,-3.1,x
C[C@H](CO)N1C[C@H](C)[C@@H](CN(C)CC2CCCCC2)Oc2ccc(NC(=O)C3CC3)cc2C1=O,-0.24,-10,1.4,12
Clc1ccc(/C=N\n2cnnc2)c(Cl)c1,-0.26,0,0.6,-13
C[C@H](CO)N1C[C@H](C)[C@@H](CN(C)S(=O)(=O)c2cn(C)cn2)Oc2ccc(NS(=O)(=O)c3ccc(Cl)cc3)cc2C1=O,0.3,2,x,-6
C[C@H](CO)N1C[C@H](C)[C@H](CN(C)S(=O)(=O)c2ccc(F)cc2)Oc2ccc(NS(=O)(=O)c3cccs3)cc2C1=O,-0.86,-12,-1.9,4
CC(C)NC(=O)Nc1ccc2c(c1)C(=O)N([C@H](C)CO)C[C@@H](C)[C@H](CN(C)Cc1ccc(-c3ccccc3)cc1)O2,-0.53,-6,-1.6,14

Carrying on:
Structure,YB-1 expr inh,MITF inhib,PD-1 reverse act,Hedgehog inh
C[C@H]1CN([C@@H](C)CO)C(=O)c2cccc(NC(=O)NC3CCCCC3)c2O[C@H]1CN(C)S(=O)(=O)c1cn(C)cn1,-0.31,-5,1.6,-59
C[C@H]1CN([C@@H](C)CO)C(=O)Cc2cc(NS(=O)(=O)c3ccccc3)ccc2O[C@@H]1CN(C)Cc1ccc(Oc2ccccc2)cc1,-0.52,15,-1.6,15
COc1ccc(CN(C)C[C@@H]2Oc3c(NS(=O)(=O)c4ccc(C)cc4)cccc3C(=O)N([C@@H](C)CO)C[C@@H]2C)cc1,-0.16,-6,0.0,9
CCOc1ccccc1NC(=O)CSc1nnc(-c2ccco2)n1C,x,3,0.0,x

Given field by field: entries from further up
> C[C@H]1CN([C@@H](C)CO)C(=O)Cc2cc(NS(=O)(=O)c3ccc(F)cc3)ccc2O[C@H]1CN(C)S(=O)(=O)c1ccc(F)cc1
  YB-1 expr inh: 0.18	MITF inhib: 1	PD-1 reverse act: x	Hedgehog inh: -14

> COc1ccc(S(=O)(=O)Nc2ccc3c(c2)C(=O)N([C@H](C)CO)C[C@@H](C)[C@H](CN(C)C(=O)NC(C)C)O3)cc1
  YB-1 expr inh: -0.036	MITF inhib: -3	PD-1 reverse act: 2.2	Hedgehog inh: x

> CNC[C@H]1Oc2ccc(NC(=O)Cc3cn(C)c4ccccc34)cc2C(=O)N([C@H](C)CO)C[C@H]1C
  YB-1 expr inh: -0.24	MITF inhib: 7	PD-1 reverse act: 0.5	Hedgehog inh: 12

An excerpt; rates above refer to the full screens.
